Sfp PPTase inh = qHTS Assay for Inhibitors of Bacillus subtilis Sfp phosphopantetheinyl transferase (PPTase) | 4'-phosphopantetheinyl transferase ffp (Bacillus subtilis), Q9F4F7 | Biochemical Sfp PPTase activity, qHTS | Potency, µM, for the others: max response, negative = inhibition, most hits filed as inhibitors | 310,000 compounds, 3.5% hits; active means well fitted inhibition curve with a large enough effect; inconclusive means small, poorly fitted or top-dose-only effect, or another doubt; inactive means no such curve, though single readings can be large or run the other way;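 further: the enzyme is Sfp with the accession as filed and its product quenches rhodamine fluorescence; potency means the concentration at half of the fitted maximal effect; 0% = enzyme reaction without inhibitor and -100% = no enzyme wells; top concentration of the series not given in the record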
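Fluorescence-quenching assay: 15 nM Sfp-PPTase preincubated 15 min at room temperature with compound, then 5 uM rhodamine-CoA and 12.5 uM BHQ-2-labelled YbbR peptide added. Fluorescence (ex 525/em 598 nm) read at start and after 30 min; difference gives rate.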
PINK1 modulator = A Quantitative High throughput Screen to Identify Chemical Modulators of PINK1 Expression | PINK1 immunofluorescence, high-content cytometry, 24 h | Potency, µM (highest dose often 76.6 µM), inactives show top-dose activation (PINK1 increase), actives largely listed as activators | 410,000 compounds, 0.2% hits | AID 624263, 2012; active = well fitted activation curve with a large enough effect; inconclusive = small, poorly fitted or top-dose-only effect; inactive = flat fitted curve, though single readings scatter; cell line not stated here;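 further: potency means the concentration at half of the fitted maximal effect; % of control where 0% means no effect; nearly all actives have a fitted effect of over 65% in size; a mitochondrial uncoupler was the plate control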
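PINK1 protein level read as immunofluorescence by microplate cytometer in a fixed, stained stable cell line after 24 h exposure to five compound concentrations, with CCCP as control.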
ClpP mod = qHTS Assay for Activators of ClpP; Potency, µM (doses to about 57.5 µM), for the others: top-dose activity change, negative = active; purified B. subtilis ClpP, FRET peptide cleavage, 20 min; AID 651965, 2013; 340,000 compounds, 1.9% hits; active = well fitted falling curve with a large enough effect; inconclusive = small, poorly fitted or top-dose-only effect; inactive = no such curve, though single readings can be large or run the other way; further: potency means the concentration at half of the fitted maximal effect; the source files actives as falling curves though it sought activators and does not explain the sign; nearly all actives have a fitted effect of over 65% in size; many hits overshoot -100%
Target sequence (P80244 whole entry, looked up): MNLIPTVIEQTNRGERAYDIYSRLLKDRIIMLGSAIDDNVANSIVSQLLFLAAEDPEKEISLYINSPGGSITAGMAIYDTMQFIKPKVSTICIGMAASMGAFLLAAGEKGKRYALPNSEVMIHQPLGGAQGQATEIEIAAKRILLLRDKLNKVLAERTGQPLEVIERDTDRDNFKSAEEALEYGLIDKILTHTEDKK
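ClpP 10 microg/mL final, pH 8 Tris/KCl buffer with BSA, glycerol, Tween-20; compound pinned in; FRET-FV substrate; RT 20 min; Ex320/Em430; ΔFRET vs ADEP 5.8 microM, DMSO, no enzyme.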
TRPML1 inh = qHTS for Inhibitors of the Human Mucolipin Transient Receptor Potential 1 (TRPML1) | Mucolipin-1 (Homo sapiens), Q9GZU1 | TRPML1-inducible cells, Ca2+ dye fluorescence, FDSS; hits give low values; inhibition of EC80 agonist-evoked calcium signal | activity change, negative = inhibition, % (concentration not given with the values) | 390,000 compounds, 0.02% hits; in the data active means activity change below about -50%; inconclusive means about -30% to -50%; inactive means above about -30%;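 further: stimulus is agonist 54-4 at its EC80 concentration; on the % scale 0 is the no-effect control and ±100 the full control effect; the text of the record puts the active cut at -80%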
Target sequence (Q9GZU1 whole entry, looked up): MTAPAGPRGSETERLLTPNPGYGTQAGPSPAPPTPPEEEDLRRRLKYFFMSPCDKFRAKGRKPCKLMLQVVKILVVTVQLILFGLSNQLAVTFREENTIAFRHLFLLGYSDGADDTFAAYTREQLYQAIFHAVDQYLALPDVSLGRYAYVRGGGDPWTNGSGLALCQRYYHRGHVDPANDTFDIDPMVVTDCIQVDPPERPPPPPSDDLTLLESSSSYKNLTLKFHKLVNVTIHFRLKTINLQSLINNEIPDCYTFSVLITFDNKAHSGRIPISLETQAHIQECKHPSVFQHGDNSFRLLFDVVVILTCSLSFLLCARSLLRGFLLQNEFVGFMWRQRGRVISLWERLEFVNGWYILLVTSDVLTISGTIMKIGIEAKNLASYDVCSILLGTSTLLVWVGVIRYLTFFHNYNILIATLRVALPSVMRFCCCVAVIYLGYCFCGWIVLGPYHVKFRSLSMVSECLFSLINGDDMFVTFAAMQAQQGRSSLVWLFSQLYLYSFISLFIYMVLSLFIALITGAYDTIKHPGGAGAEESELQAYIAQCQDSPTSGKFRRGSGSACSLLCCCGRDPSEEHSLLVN
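TRPML1-DL cells, Tet-induced overnight (~16 h, 37 °C) at 1,500 cells/well, were loaded with Ca8 no-wash dye plus quencher for 45-90 min at room temperature. Compounds were pinned during FDSS kinetic reading; agonist 54-4 at EC80 (4 uM final) then added.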
Menin MLL FP FL = qHTS Assay for Inhibitors Targeting the Menin-MLL Interaction in MLL Related Leukemias: Competition With Fluorescein Labeled MLL-derived Peptide | FP activity change, % at 61.4 µM | 290,000 tested, under 10 active | AID 1766, 2009 | Fluorescence polarization, fluorescein-MLL peptide displacement from menin; inconclusive = falling polarisation curve, or a change in total fluorescence; inactive = total fluorescence flat and polarisation flat or rising; no compound was filed as active; the % refers to the polarisation; negative = inhibition;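 further: % of control where 0% means no effect; inhibitors lower the polarisation; unlabelled MLL peptide was the positive control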
TRPV1 PAM = HTS Assay for Compounds that Act as Potentiators of the Vanilloid Receptor 1 | 320,000 compounds, 0.02% hits | Transient receptor potential cation channel subfamily V member 1 (Homo sapiens), Q8NER1 | TRPV1-expressing cells, Fluo-8 calcium influx, capsaicin EC20 potentiation; host cell line not named in the record; control for the full effect not named in the record | potentiation, % at 8.33 µM; active means potentiation above 80%; inconclusive means 30% to 80%; inactive means below 30%; further: 0% is about no effect
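TRPV1-expressing cells were cultured overnight at 35.5C and loaded with Fluo-8 calcium dye for 40 to 90 min at room temperature. After a 10 s baseline, compound was added and calcium influx was read kinetically for 3 min (ex 480/em 520 nm).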
TRPML1 agonist = qHTS for Agonists of the Human Mucolipin Transient Receptor Potential 1 (TRPML1); activation, % (no concentration beside the values); 410,000 compounds, 0.12% hits; AID 624414, 2012; TRPML1-expressing cells, Ca2+ dye fluorescence, FDSS; host cell line not named in the record; reference of the full effect not given here; in the data active = activation above about 50%; inconclusive = about 30% to 50%; inactive = below about 30%; further: 0% is about no effect; the text of the record puts the active cut at 80%
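In this qHTS format, compounds were pin-transferred onto Ca8-dye-loaded TRPML1-DL cells induced with Tet overnight, and intracellular Ca2+ fluorescence was recorded kinetically for 110 s after a 10 s baseline. A subsequent 4uM final 54-4 (EC80) addition followed by a second 110 s read served as the antagonist phase.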
* hit, by the source's call; ? = inconclusive; . = no result given; & = joins results of further samples; [ ] = remark or other dose.

SMILES	Sfp PPTase inh	PINK1 modulator	ClpP mod	TRPML1 inh	Menin MLL FP FL	TRPV1 PAM	TRPML1 agonist
COc1ccc(N(CC(=O)NCc2ccccc2OC)S(=O)(=O)c2ccccc2)cc1	-6%	-0.1%	.	-17	-2.7	-11	1.2
COc1cc2ccccc2cc1C(=O)Nc1ccc(C)cn1	18%	9.0%	4.0%	14	0.3	-5	-0.5
CC1(C)CC(=O)C=C(NC2CCCCC2)C1	.	0.2%	-0.6%	-5	.	-11	-0.3
Cc1cc2c(cc1C)NC(C)CC(=O)N2 (stereo not drawn)	.	-3.3%	.	7	.	.	0.7
C[C@H](CCC(=O)NCC(=O)O)[C@H]1CC[C@H]2[C@@H]3[C@H](O)C[C@@H]4C[C@H](O)CC[C@]4(C)[C@H]3C[C@H](O)[C@]12C	22%	-0.7%&1.7%&2.0%	-5.5%&-0.6%&-2.7%	6&0&19	-1.4	-2&-5&12	1.3&0.1&0.0
CCOc1cccc2cc(C(=O)Nc3ccccc3-c3ccccc3)c(=O)oc12	-9%	13%	-0.8%	-22	1.3	5	-0.7
CC(=O)Oc1c(C)c(C)c2c(c1C)CC[C@@](C)(CCC[C@H](C)CCC[C@H](C)CCCC(C)C)O2	-5%	2.6%	0.2%	-14	-5.3	-6	0.1
CCCNC(=O)c1ccc2c(c1)N(Cc1cccc(C)c1)C(=O)c1ccccc1S2	.	-0.4%	-0.1%	37	.	.	2.9
COc1cc(CNCCSc2nnnn2C)cc(Cl)c1OCc1ccccc1	.	-0.6%	-2.0%	4	.	.	-0.5
CCOC(=O)CSc1nc2c(sc(=S)n2-c2ccc(CC)cc2)c(=O)[nH]1	14%	0.4%	.	13	0.2	15	2.0
O=C(CSc1nc2scc(-c3ccccc3)c2c(=O)[nH]1)N1CCOCC1	18%	2.5%	-16%	-4	.	0	0.8
Cc1cccc(S(=O)(=O)NC(=O)C2(C)CCN2C(=O)Cc2ccsc2)c1 (stereo not drawn)	.	1.4%	-0.4%	.	.	.	-0.5
COc1ccc(S(=O)(=O)NCC2CCCN(C(=O)CNC(C)=O)C2)cc1 (stereo not drawn)	2%	-0.8%	0.9%	16	2.8	-7	0.0
COC(=O)[C@@H]1C[C@@H]2CC[C@@H](O)C[C@@H]2N1Cc1ccc(C(F)(F)F)cc1	36%&7%[activator]	-0.6%	-2.1%	0	9.0&17	-4	1.4
N=c1n(CCO)c2ccccc2n1CCOc1ccc(Cl)cc1Cl	6%	-1.3%	-0.9%	-15	-7.2	.	-0.1
CN(c1ccccc1C(=O)Nc1ccc(S(=O)(=O)N2CCCCC2)cc1)S(C)(=O)=O	0%	8.9%[38.3 µM]	-0.6%	5	2.3	1	-0.4
CC(C)C[C@H]1CNC(=O)C(=O)N1CC1CCN(CCC(C)(C)C)CC1	.	2.5%	-3.8%	16	.	.	-0.5
CCc1cccc(C)c1N=Cc1c(O)c2ccccc2oc1=O	-2%	2.2%	0.0%	-25	3.3	-3	-1.3
Cc1c(CCC(=O)N[C@@H](C)C(=O)O)c(=O)oc2c(C)c3oc4c(c3cc12)CCCC4	7%	0.8%	3.3%	-6	-1.2	-4	0.6
COC(=O)C(CC(C(=O)OC)C(=O)OC)C(=O)OC	7%	-0.6%	2.8%	14	-3.9	-17	-0.4
CCOc1cc(N2CCOCC2)c(OCC)cc1NC(=O)c1ccc(S(=O)(=O)N(C)C)cc1	?	1.2%	0.1%	5	-10	-4	0.9
C=CCn1c(SCC(=O)N2CCN(C(=O)OCC)CC2)nc2c([nH]c3ccccc32)c1=O	.	-0.5%	-2.7%	3	.	.	-0.1
O=C(Nc1ccccn1)c1cccc(S(=O)(=O)N2CCCc3ccccc32)c1	.	1.9%	-4.2%	7	.	-5	4.1
O=c1c2ccccc2[nH]c2ccc(O)cc12	-25%	0.2%	.	4	?	8	0.6
CC1(NC(=O)Cc2ccc(Cl)c(Cl)c2)CCS(=O)(=O)C1 (stereo not drawn)	.	-1.3%	-0.3%	-7	.	-1	-0.4
Cc1ccccc1OCCCC(=O)Nc1ccc(Br)cc1	21%	6.7%	1.3%	-1	-2.3	-1	0.3
COc1ccccc1N1CCN(Cc2cn[nH]c2-c2ccc(F)cc2)CC1	20%	0.8%	-1.1%	18	2.6	.	1.3
CC(=O)C(C)Oc1ccc2c3c(c(=O)oc2c1)CCCCC3 (stereo not drawn)	71µM*	-0.4%	?	-8	3.1	?	0.8
O=C(Cn1ccc(=O)[nH]c1=O)Nc1nccs1	.	3.1%	-1.8%	-8	.	.	-0.2
Cc1cccc(NC(=O)c2c(Br)sc3c2CCCC3)c1	.	1.7%	-4.2%	7	.	.	1.2
Cc1ccc(C)c(N2CCN(C(=O)c3ccc4c(c3)N(Cc3ccc(F)cc3)C(=O)c3ccccc3S4=O)CC2)c1 (stereo not drawn)	.	-0.1%	-1.4%	1	.	.	-0.5
COCCCN(CC(=O)O)S(=O)(=O)c1ccccc1	21%	-2.1%	.	4	0.6	-6	0.6
CC(=O)N1CCc2c(sc3c2c(=O)n(-c2ccc(C)cc2)c(=O)n3CC(=O)Nc2ccccc2)C1	.	0.2%	0.4%	49	.	.	1.2
C=CCOc1ccc(C=Nc2ccc(C)c(Cl)c2)c(O)c1	13%	-0.7%	-4.8%	3	0.0	13	0.5
CN1CCN(c2ccc(Cl)cc2NC(=O)/C=C/c2cccc(F)c2)CC1	?	-1.0%	.	14	5.9	19	0.9
CC1Oc2ccccc2N(CC(=O)NC2CCCC2)C1=O (stereo not drawn)	8%	1.0%	.	-13	6.1	0	-0.4
CN(C)CCCN=c1cc(-c2ccccc2)oc2ccc(Cl)cc12	-16%	-1.4%	-2.7%	0	-1.6	-3	1.6
COC(=O)c1cc(/C=C/c2ccccc2)on1	20%	-1.1%	?	10	-0.1	-5	-0.6
O=C(NCC(c1cccnc1)N1CCN(c2ccccc2)CC1)C1CCCCC1 (stereo not drawn)	3%	.	1.4%	-6	10	-8	-0.2
CCOc1ccc(C(=O)Nc2ccccc2C(=O)OCc2cc(=O)n3nc(C4CC4)sc3n2)cc1	.	1.4%	-5.0%	16	.	.	-0.6
O=C(N/N=C/c1c[nH]c2ccccc12)c1ccc([N+](=O)[O-])cc1Cl	1%	0.7%	-1.3%	27	-0.8	-5	1.2
O=C(COC(=O)C1CC(=O)N(Cc2ccco2)C1)c1ccc(OC(=O)c2ccccc2)cc1 (stereo not drawn)	32µM*	0.4%	28%	16	4.8	-10	0.0
c1csc(CNc2ncncc2-c2ccoc2)c1	8%	-0.2%	.	.	0.5	.	.
COc1ccccc1C(=O)NCC(=O)N1CC=C(c2ccccc2)CC1	.	1.1%	0.6%	7	.	-4	1.5
CCOc1ccc(-c2cc(C(=O)NN3CCN(C)CC3)c3cc(Cl)ccc3n2)cc1	-6%	.	.	.	1.3	7	.
CCOc1ccc2oc(C(=O)Nc3ccc4c(c3)OCO4)c(C)c2c1	-21%	-0.3%	.	3	-0.9	-16	2.4
CCOC(=O)c1cc(-c2cccnc2)nn1-c1ccccc1	9%	-1.1%	.	-9	-8.2	-12	-0.4
O=C(NCc1ccccc1)C(=O)NCC1OCCN1C(=O)c1cccs1 (stereo not drawn)	16%	0.5%	-0.5%	9	0.8	-9	-0.3
CCOc1ccc(C(CC(=O)O)NC(=O)Cc2ccc(Cl)cc2)cc1 (stereo not drawn)	10%	0.7%	0.6%	-14	?	-19	-0.8
NC(=O)c1ccccc1NC(=O)c1cccc(C(=O)Nc2ccccc2C(N)=O)n1	.	-1.4%	.	8	.	.	1.2
(further entries)
SMILES	Sfp PPTase inh	PINK1 modulator	ClpP mod	TRPML1 inh	Menin MLL FP FL	TRPV1 PAM	TRPML1 agonist
COc1cc(OC)c(NC(=O)Cn2c(=O)nc(-c3ccccc3)c3ccccc32)cc1Cl	.	-0.1%	0.4%	-5	.	.	-0.6
CC12CC3CC(C)(C1)CC(CN)(C3)C2	12%	-1.7%	-0.6%	22	2.6	1	0.5
Nc1c(C(=O)Nc2ccc3c(c2)OCCO3)nnn1Cc1cccc(Cl)c1	.	15%	.	10	.	19	0.9
COc1ccc(OC)c(N(CC(=O)N2CCCC2)S(=O)(=O)c2ccccc2)c1	12%	-0.3%	.	2	1.9	?	0.3
CCOC(=O)CSc1nnc(NC(=O)CN2CCCCC2)s1	-13%	7.7%	.	-7	-2.5	-8	-0.5
O=C(O)CC(c1ccc(Cl)cc1)n1cccc1 (stereo not drawn)	14%	-0.5%	0.5%	-17	2.6	.	-0.8
CCOc1ccccc1NC(=O)C(CC)Sc1nc2ncccc2[nH]1 (stereo not drawn)	.	1.4%	-20%	-10	.	.	-0.6
Cc1ccccc1OCCSc1nc2ccc(NC(=O)c3cccs3)cc2s1	.	1.8%	14µM*	-5	.	.	0.6
O=C(CCN1C(=O)c2ccccc2S1(=O)=O)Nc1ccc(C(=O)O)cc1	12%	1.0%	1.1%	-13	-0.3	-3	-0.1
CC1CC(C)CN(C(=O)C2CCN(S(=O)(=O)c3c(Cl)cccc3Cl)CC2)C1 (stereo not drawn)	-2%	-3.1%	1.9%	22	.	-6	1.1
Cc1sc2ncnc(N3CCC(C(=O)NNC(=O)c4ccc(F)cc4)CC3)c2c1C	.	1.6%	-0.6%	7	.	6	0.4
COc1ccc(N2C(=O)S[C@@H]3CS(=O)(=O)C[C@@H]32)cc1	17%	0.4%	-1.7%	9	2.1	14	-0.1
COc1ccc(NC(=O)Cn2nnc(C(=O)NCc3cccs3)c2N)cc1Cl	-1%	3.8%	-2.6%	-14	1.9	2	0.6

Rows are unselected; about 4.4% have a hit in one of these screens.
